Assay outcomes as filed in PubChem.
HPGD block: blocks human HPGD enzyme activity | Potency, µM, inactives show at the top dose activity change, negative = inhibition, actives largely listed as inhibitors | purified HPGD, NADH fluorescence kinetic, PGE2 substrate | 150,000 tested, 4.3% active | P15428; active = well fitted inhibition curve with a large enough effect (not every such curve was filed as active); inconclusive = small, poorly fitted or top-dose-only effect, or another doubt; inactive = no such curve, though single readings can be large or run the other way;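 also: top concentration of the series not given in the record; plate controls included wells without enzyme; inactives centre near -10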
Target sequence (P15428 whole entry, looked up): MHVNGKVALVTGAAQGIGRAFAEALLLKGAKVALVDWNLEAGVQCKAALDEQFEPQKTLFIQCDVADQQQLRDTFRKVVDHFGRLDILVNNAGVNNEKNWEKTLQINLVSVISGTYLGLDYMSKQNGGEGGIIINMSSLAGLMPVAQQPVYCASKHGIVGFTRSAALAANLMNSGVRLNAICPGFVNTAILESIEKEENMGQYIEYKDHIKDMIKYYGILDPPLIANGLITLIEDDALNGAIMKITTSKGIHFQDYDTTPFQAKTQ
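NADH formation kinetics: reaction with 30 uM PGE2 and 1 mM NAD+ (final), 20 nM enzyme, Tris-HCl pH 8 with Tween 20, after 15 min compound preincubation at room temperature. Fluorescence change, last versus first of five reads.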
Starred values were filed as active, the others as inactive; u = inconclusive; & = joins results of further samples. % is scaled to controls: 0 for no effect and ±100 for the full control effect; potency is read from the fitted curve at half-maximal effect. This is a subset; rates above refer to the full screens.

Preview (two entries):
SMILES | HPGD block
O=c1c(CN2CCN(Cc3ccccc3)CC2)coc2ccc(Cl)cc12 | -8%
CCCCc1ccc(NC=C2C(=O)OC3(CCCCC3)OC2=O)cc1 | -7%

All compounds of this part, from the start:
SMILES | HPGD block
O=c1c(CN2CCN(Cc3ccccc3)CC2)coc2ccc(Cl)cc12 | -8%
CCCCc1ccc(NC=C2C(=O)OC3(CCCCC3)OC2=O)cc1 | -7%
CCCCCCN1C=C/C(=C\C=C(C#N)C#N)c2ccccc21 | -3%
CN1CCc2c(sc3c2C(=O)NC(c2ccco2)N3)C1 (stereo not given) | u
S=c1[nH]nc(-c2ccc3ccccc3n2)n1-c1cc(Cl)cc(Cl)c1 | u
O=C(Nc1ccc(F)cc1)C1C(c2ccccc2)C1(Cl)Cl (stereo not given) | -9%
O=C(O)c1cc(NCc2ccc3c(c2)OCO3)ccc1N1CCOCC1 | -21%
COc1ccc(CCNC(=O)CSc2nc3cc(Cl)ccc3o2)cc1OC | -3%
Oc1ccc(Cl)cc1C=NCCc1ccccc1 | -24%
CC(=O)c1ccc(NC(=O)C2CC(c3ccc(F)cc3)=NO2)cc1 (stereo not given) | -2%
CCOC(=O)CSc1nnc(CSc2nc3sc4c(c3c(=O)[nH]2)CCCC4)n1-c1ccccc1 | 14µM*
C/C(CC/C(C)=N/O)=N/O | -5%
COc1ccc(CCNC(=O)C2CCN(Cc3nc(-c4cccc(Cl)c4)oc3C)CC2)cc1OC | -6%
O=C(CC(=O)N1CCN(c2ccccn2)CC1)Nc1ccc2nc3n(c(=O)c2c1)CCCCC3 | -20%
COC(=O)CNC(=O)C1CCN(c2nc(C)cc(C)n2)CC1 | -42%
CCOc1ccc(C2CC(c3cccc(OC)c3)Nc3ncnn32)cc1 (stereo not given) | -10%
O=C(O)C1C2C=CC3(O2)C1C(=O)N1c2ccccc2C2OCCC2C13 (stereo not given) | 0%
CCOc1ccc(Cc2nc(N)nc(N)n2)cc1 | -11%
CCOc1ccc(NC2=NCCC(=O)N2Cc2cccs2)cc1 | -5%
COc1ccc(Oc2cn[nH]c2-c2ccc(O)cc2O)cc1 | -18%
COc1ccc(C(=O)ON=C2c3ccccc3-c3ccccc32)cc1OC | -23%
NC(=O)c1ccc(NC(=O)COC(=O)c2c3c(nc4ccccc24)/C(=C\c2cccs2)CCC3)cc1 | u
CC(C)NC(=O)N1CC2(CCN(C(=O)c3cccn3C)CC2)C1 | -4%
CCOC(=O)N/N=C\c1sccc1C | -17%
O=C(c1cc([N+](=O)[O-])cc([N+](=O)[O-])c1)N1CCOCC1 | -7%
COc1cc(C(=S)N2CCCC2)cc(OC)c1OS(=O)(=O)c1ccc(NC(C)=O)cc1 | 22µM*
CN1CCN(C(=O)c2ccc3c(c2)N(Cc2ccc(Cl)cc2)C(=O)c2ccccc2S3=O)CC1 (stereo not given) | -5%
COc1ccccc1-c1nc2ccccc2nc1-c1ccccc1OC | -8%
CCOc1ccccc1C1C(C#N)=C(N)Oc2n[nH]c(CC)c21 (stereo not given) | -13%
CCC(=O)c1ccc(O)c(CC=C(C)C)c1 | u
Cc1ccsc1C=Nc1ccc(O)cc1 | -6%
O=C(CSc1nc2ccccc2s1)NCc1ccc2c(c1)OCO2 | 32µM*
O=C(c1ccc(C#CC2(O)CCCCC2)cc1)N1CCN(Cc2ccccc2)CC1 | -5%
COc1ccc(C(=O)N2CCC3(CCN(Cc4ccncc4)CC3)CC2)cc1 | -4%
Cc1cc(NC(=O)C2CCCN2C(=O)Nc2c(C)cccc2C)ccc1-n1cnnn1 (stereo not given) | 7%
Cc1c(NC(=O)c2ccccc2NS(=O)(=O)c2ccc(Br)cc2)c(=O)n(-c2ccccc2)n1C | -15%
OC(CN1CCN(c2ccccn2)CC1)Cn1c2ccccc2c2ccccc21 (stereo not given) | u
Cc1ccc(NCc2cccnc2)c(Br)c1 | -4%
CCCC1CCC(=C(C#N)C(N)=O)CC1 (stereo not given) | -8%
Cc1ccccc1-c1nc(CN2CCC(C(=O)NCCC3=CCCCC3)CC2)c(C)o1 | -11%
CCOC(=O)c1cc2c(C)n(-c3ccc(C)cc3)c(C)c2ccc1=O | -7%
CC(=O)NS(=O)(=O)c1ccc(NC(=S)NC(=O)C(C)(C)C)cc1 | -10%
Cc1nc2sc(C(c3cccs3)N3CC(C)CC(C)C3)c(O)n2n1 (stereo not given) | -9%
CCCS(=O)(=O)N1CCN(C(=O)c2ccco2)CC1 | -7%
O=C(CSc1nc(-c2ccccc2)cs1)NC(=O)NCc1ccco1 | -19%
C/C=C/c1ccc(Oc2nnnn2-c2ccc(C(N)=O)cc2)c(OC)c1 | -16%
CC(=O)C1=C(O)C(=O)N(CCC(=O)O)C1c1ccc(Cl)cc1Cl (stereo not given) | u
CCn1cc(C(=O)Nc2cccc(NC(C)=O)c2)c2cc(OC)c(OC)cc2c1=O | -9%
CN(C)c1ncc2nc(CCc3ccccc3)c(=O)n(-c3ccccc3)c2n1 | u
Cc1cccc(Oc2cc(NC(=O)Cn3cnc([N+](=O)[O-])n3)cc([N+](=O)[O-])c2)c1 | u
CC(CN(C)C)CN1c2ccccc2CCc2ccccc21 (stereo not given) | -5%&-7%
CC1CCC(NC(=O)c2ccc(CS(=O)(=O)Cc3ccccc3F)o2)CC1 (stereo not given) | -11%
O=C(CCN1C(=O)c2ccncc2C1=O)NCc1ccc(Cl)cc1 | -21%
COC(=O)c1[nH]c(C)c(/C(O)=C2\C(=O)C(=O)N(CCN(C)C)C2c2cccc(OC)c2OC)c1C (stereo not given) | -14%
CCOc1ccc(C2C(C(=O)c3ccco3)=C(O)C(=O)N2CCN(C)C)cc1 (stereo not given) | -10%
CCCn1cnc2sc(CC)cc2c1=O | -7%
CCOC(=O)C1C(=O)CC(C)(O)C(C(=O)OCC)C1c1ccco1 (stereo not given) | -2%
C(=N\c1nc2ccccc2[nH]1)/c1cccs1 | -13%
Cc1cccc(CCNC(=O)CN(C)S(=O)(=O)c2cnc[nH]2)c1 | -5%
COc1ccc(C2CC(c3ccc(C)o3)=NN2C(C)=O)cc1 (stereo not given) | -12%
New compounds follow
SMILES | HPGD block
COc1ccc(-c2nn(CC(=O)Nc3ccc(Cl)c(Cl)c3)c(=O)c3ccccc23)cc1 | u
CCc1ccccc1N1C[C@@]23C=C[C@@H](O2)C(C(=O)OCC(C)C)[C@H]3C1=O (stereo not given in full) | -15%
Cc1c(N=C/C=C/c2ccccc2)c(=O)n(-c2ccccc2)n1C | -14%
Cc1noc(C)c1S(=O)(=O)N(CC(=O)N1CCn2c1nc1ccccc12)c1ccc(C(C)C)cc1 | -23%
O=C(NN=C1CCN(Cc2ccccc2)CC1)c1cccc(S(=O)(=O)Nc2ccccc2Cl)c1 | -17%
N/C(=N\OC(=O)CCCc1ccccc1)c1cccnc1 | -2%
O=C(c1cnccn1)N1CCC2(CC1)CN(c1ccccn1)C2 | -16%
O=C1C=C(Nc2cccc(O)c2)CC(c2ccco2)C1 (stereo not given) | -16%
CCCc1cc(C(=O)Nc2sc3c(c2C(=O)OCC)CCCC3)no1 | u
Cn1c2ccccc2c2cc(C(=O)NNS(=O)(=O)c3ccc(F)cc3)sc21 | u
Cc1nnc(NC2=NCCC2)s1 | -2%
O=C(CCCc1ccccc1)NCc1ccc(F)cc1 | -10%
CN(c1ccccc1C(=O)Nc1cccnc1)S(C)(=O)=O | -6%
CC(C)NC(=S)N1CCN(S(=O)(=O)c2cccc(C(F)(F)F)c2)CC1 | 1%
C=CCn1c(SCC(=O)c2c(N)n(C)c(=O)n(C)c2=O)nc2sc(C)c(C)c2c1=O | -10%
COc1ccc(C2NC(=S)NC(O)(C(F)(F)F)C2C(=O)c2cccs2)cc1 (stereo not given) | 2%
O=C(CSc1nc2ccccc2c(=O)n1NC(=O)Cc1ccccc1)NCc1ccco1 | -12%
C=CCSc1nc(C)c2cc(C)cc(C)c2n1 | -27%
O=C1N=C(N2CCN(c3ccccc3)CC2)S/C1=C\c1cn[nH]c1-c1ccccc1 | u
COc1ccc(CN2CC(=O)N(c3ccc(C)cc3)C2=S)cc1OC | 0%
CCOC(=O)CNc1c(-c2ccc(Cl)cc2)nc2cnccn12 | u
O=C(CCCN1C(=O)c2ccccc2C1=O)Nc1ccccc1C(=O)N1CCOCC1 | -9%
Cc1cccc(NC(=O)c2ccccc2OCC(=O)c2ccccc2)c1 | -7%
Cc1ccc(-c2cc(-c3ccc4c(c3)OCO4)c(C#N)c(N)n2)o1 | u
CCOc1cccc(C(=O)Nc2cccc(C(=O)NC(C)(C)C)c2)c1 | -15%
Cn1c(SCC(=O)NCc2ccc3c(c2)OCO3)nnc1C1COc2ccccc2O1 (stereo not given) | -8%
O=C(Nc1cccc(NC(=O)c2ccc(-c3cccc(Br)c3)o2)c1)c1ccco1 | u
CCOC(=O)N1CCN(c2cc(=O)n(-c3cccc(Br)c3)c(=O)[nH]2)CC1 | -3%
Cc1cc(Nc2cccc(F)c2)n2nc(C)nc2n1 | -18%
COc1ccc(-c2c(C#N)c(SCC(=O)c3cc4ccccc4oc3=O)nc(C)c2C(=O)Nc2ccccc2)cc1 | u
Fc1ccc(CSc2nc3ccccc3[nH]2)cc1 | -10%
COC(=O)c1ccc2c(=O)n(C3CCCCC3)c(SCC#N)nc2c1 | -16%
O=S(=O)(Nc1ccc(N2CCOCC2)cc1)c1ccc(Cl)s1 | -6%
CCn1c(Cn2nnc(-c3ccccc3)n2)nnc1SCC(=O)Nc1cccc(C)c1C | -10%
Cc1ccc(C(=O)OCC(=O)N2CC(=O)Nc3ccccc32)s1 | -10%
CCC(C)[C@@H](C(=O)Nc1ccc2c(c1)OCO2)N1Cc2ccccc2C1=O (stereo not given in full) | -12%
COC(=O)C(NC(C)=O)(Nc1sc2c(c1C(N)=O)CCCC2)C(F)(F)F (stereo not given) | -9%
Cc1ccc(C(=O)ON=C2CCN(S(=O)(=O)c3ccccc3)CC2)cc1 | -9%
CCCCNC(=O)CN(CCc1ccccc1)S(C)(=O)=O | -7%
CCCN(CCC)CCCNC(=O)c1ccc2c(c1)N(CC)C(=O)c1ccccc1S2=O (stereo not given) | -2%
CC(=O)NCCn1c(SCC(=O)NCCC(C)C)nc2ccccc2c1=O | -4%
CCCCN(Cc1cc2cc(OC)ccc2[nH]c1=O)C(=O)c1ccco1 | u
CC(=O)O[C@@H]1CC(C)=C2[C@H]1[C@H](C)CC[C@H]2/C=C(\C)C(=O)O | -5%
CC1CC(Nc2ccccc2)c2ccccc2N1C(=O)c1cccnc1 (stereo not given) | -1%
Cc1ccc(C)c(CSc2nnc(-c3ccccn3)n2N)c1 | 16µM*

Some of these compounds in order of SMILES length, largest number first:
SMILES | HPGD block
COc1ccc(-c2c(C#N)c(SCC(=O)c3cc4ccccc4oc3=O)nc(C)c2C(=O)Nc2ccccc2)cc1 | u
CC(=O)O[C@@H]1CC(C)=C2[C@H]1[C@H](C)CC[C@H]2/C=C(\C)C(=O)O | -5%
CCOC(=O)N1CCN(c2cc(=O)n(-c3cccc(Br)c3)c(=O)[nH]2)CC1 | -3%
CCCN(CCC)CCCNC(=O)c1ccc2c(c1)N(CC)C(=O)c1ccccc1S2=O (stereo not given) | -2%
CCn1c(Cn2nnc(-c3ccccc3)n2)nnc1SCC(=O)Nc1cccc(C)c1C | -10%
COC(=O)C(NC(C)=O)(Nc1sc2c(c1C(N)=O)CCCC2)C(F)(F)F (stereo not given) | -9%
Cn1c(SCC(=O)NCc2ccc3c(c2)OCO3)nnc1C1COc2ccccc2O1 (stereo not given) | -8%
Cc1ccc(C(=O)ON=C2CCN(S(=O)(=O)c3ccccc3)CC2)cc1 | -9%
CCCCN(Cc1cc2cc(OC)ccc2[nH]c1=O)C(=O)c1ccco1 | u
COC(=O)c1ccc2c(=O)n(C3CCCCC3)c(SCC#N)nc2c1 | -16%
Cc1ccc(C(=O)OCC(=O)N2CC(=O)Nc3ccccc32)s1 | -10%
O=S(=O)(Nc1ccc(N2CCOCC2)cc1)c1ccc(Cl)s1 | -6%
Cc1ccc(C)c(CSc2nnc(-c3ccccn3)n2N)c1 | 16µM*
CCCCNC(=O)CN(CCc1ccccc1)S(C)(=O)=O | -7%
Cc1cc(Nc2cccc(F)c2)n2nc(C)nc2n1 | -18%
Fc1ccc(CSc2nc3ccccc3[nH]2)cc1 | -10%

(listing goes on)
SMILES | HPGD block
Cc1cccc(C)c1N1CCN(S(=O)(=O)N2CCOCC2)CC1 | -9%
OC1(c2ccc(F)cc2)CCN(Cc2nnnn2Cc2cccs2)CC1 | -4%
O=C(O)c1ccc(CSc2nnc(SCc3ccccc3)s2)cc1 | 20µM*
COc1cccc(-n2c(SCC(=O)NCCC3=CCCCC3)nc3n[nH]c(C)c3c2=N)c1 | -17%
CCOC1CCCCC1NS(=O)(=O)c1ccc(Cl)cc1 (stereo not given) | -15%
O=C(O)c1ccccc1N(Cc1ccccc1)C(=O)CO/N=C/c1ccccc1 | -22%
C=CCNCC#CCOc1ccc(OC)cc1 | -3%
O=C(Nc1ccc(S(=O)(=O)N2CCCC2)cc1)c1cccnc1 | -5%
CCN(C(=O)CSc1nnc(-c2ccncc2)n1C)C1CCS(=O)(=O)C1 (stereo not given) | -15%
CCCCOc1ccc(CONS(=O)(=O)c2ccc(NC(C)=O)cc2)cc1Cl | -19%
Cc1cccc(-n2c(=O)c3c(n4cnnc24)-c2ccccc2CC32CCCCC2)c1 | -2%
O=C(c1cnccn1)N1CCC2(CC1)CN(Cc1ccccc1)C2 | -6%
CC1CN(C(=S)NC(=O)c2ccc([N+](=O)[O-])cc2)CC(C)O1 (stereo not given) | 0%
Cc1cc2nc(/N=C(\N)NC(=O)N3c4ccccc4Sc4ccccc43)nc(C)c2cc1C | -8%
Cc1nc(N(C)Cc2ccccc2)c2nnn(Cc3ccccc3)c2n1 | u
CC(C)Cn1c(N)c(C(=O)COC(=O)CC23CC4CC(CC(C4)C2)C3)c(=O)n(C)c1=O | -12%
Cc1ccc(NC(=O)CCn2cccc2)cc1 | 1%
CCCn1nc2cc(C(=O)NCCc3ccc(C)cc3)ccc2c1OCC | u
COc1ccc(-c2nc3cc(NC(=S)NC(=O)Cc4ccccc4)ccc3o2)cc1 | -14%
CC1SC(=NC(=O)c2ccco2)NC1=O (stereo not given) | -10%
